Rce1 inh: blocks yeast Ras-converting enzyme; yeast membranes, quenched prenylated peptide cleavage fluorescence; calls only; 290,000 tested, 0.27% active; AID 2563;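 active means fall in fluorescence gain of 50% or more versus controls, with final raw signal at or below 3038400; inconclusive means same 50% fall but final raw signal above 3038400; inactive means fall in fluorescence gain under 50%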;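 further: plate controls were neutral control wells for no effect and wells lacking membranes for full effect; tested at 10 µM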
UUG fidelity: modulators of start codon recognition fidelity in yeast. S. cerevisiae UUG-firefly luciferase reporter, luminescence/redox ratio. activity score, % at 18.7 µM. 350,000 tested, 0.13% active. AID 602363;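 active means replicate mean at a twofold rise or more, about +100% in these data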;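 further: firefly luciferase made from a UUG start codon reports start codon fidelity; reporter light over untreated wells divided by growth signal over untreated wells; some hits fall short of that in this replicate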
PABP polyA inh: PABP-poly(A) binding inhibition. P11940. PABP-poly(A) RNA binding, fluorescence polarization. inhibition, % at 35 µM. 290,000 tested, 1% active. AID 2014;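 active means 50% or more with normal probe brightness, or confirmed in later tests; inconclusive means above 50% with abnormal brightness, or retests that disagree; inactive means below 50% or failed in later tests; about a fifth of its hits are not listed in these tables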;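 further: calls also rest on retests at 20 µM and on dose response follow-up; controls were probe without protein and protein plus probe with vehicle; some compounds called inactive have numbers as strong as hits; many hits fall short of the cut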
Target sequence (P11940 whole entry, looked up): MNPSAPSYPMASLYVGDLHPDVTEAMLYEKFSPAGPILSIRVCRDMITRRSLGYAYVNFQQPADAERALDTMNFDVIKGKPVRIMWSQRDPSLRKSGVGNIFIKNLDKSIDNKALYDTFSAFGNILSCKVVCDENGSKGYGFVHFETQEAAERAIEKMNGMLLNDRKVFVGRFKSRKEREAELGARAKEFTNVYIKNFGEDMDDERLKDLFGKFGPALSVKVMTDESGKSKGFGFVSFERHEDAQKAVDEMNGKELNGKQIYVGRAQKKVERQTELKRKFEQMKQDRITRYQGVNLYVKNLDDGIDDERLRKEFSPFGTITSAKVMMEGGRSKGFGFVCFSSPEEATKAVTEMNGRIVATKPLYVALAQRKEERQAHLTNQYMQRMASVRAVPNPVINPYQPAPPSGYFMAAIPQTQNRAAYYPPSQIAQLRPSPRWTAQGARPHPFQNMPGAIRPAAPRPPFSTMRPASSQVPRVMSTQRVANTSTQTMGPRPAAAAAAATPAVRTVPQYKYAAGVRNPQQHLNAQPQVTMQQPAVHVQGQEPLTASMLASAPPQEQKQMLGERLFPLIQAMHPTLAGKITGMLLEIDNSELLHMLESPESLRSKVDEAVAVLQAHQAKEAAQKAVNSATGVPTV
Env fusion inh: inhibitors of HIV Env-mediated cell fusion; HeLa-JRFL Env/CEM21 cell fusion, luciferase; inhibition, % at 12.3 µM; 360,000 tested, 1.1% active; AID 651610;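 active means mean replicate inhibition score of at least 50 and every replicate individually at or above 50; inconclusive means only one of the two criteria met; inactive means mean below 50 and not all replicates reaching 50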;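 further: 0% = plate neutral controls and 100% = maraviroc near 300 nM; one replicate is shown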
MT1-MMP act inh: MT1-MMP (human) activation inhibition; HT1080 RFP-PRO-GFP cells, GFP/RFP ratio fluorescence, overnight; percent of plate control window, DMSO zero; GFP/RFP ratio change, % at 20 µM; AID 651647; 360,000 tested, 0.061% active;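 active means GFP/RFP ratio change of at least 30% with cell ATP level not reduced by more than half and red fluorescence within 50% of control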; further: strong numbers were not always called active
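Read-out: GFP/RFP fluorescence ratio; Test system: RFP-PRO-GFP reporter HT1080 cells; Compound dosing: single-point 20 µM compound, 1% DMSO; Times: overnight compound exposure at 37 °C.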
CSC inhib: cancer stem cell inhibition | inhibition, % at 7.5 µM | 300,000 tested, 1.1% active | cancer stem cell-like cells viability, luminescence;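 active means mean at 75% or more and at least half the replicates too; inconclusive means mean and replicates disagree; tested in HMLE shEcad cells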;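 further: 0% = median of negative and 100% = median of positive control wells; the first replicate is given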
eIF4H inh: inhibitors of RNA binding by human eIF4H | eIF4H fluorescence polarization binding assay | AID 2012 | Q15056 | 290,000 tested, 0.94% active | inhibition, % at 35 µM;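 active means 50% or more with normal probe brightness, or confirmed in later tests; inconclusive means above 50% with abnormal brightness, or retests that disagree; inactive means below 50% or failed in later tests; about a fifth of its hits are not listed in these tables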;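 further: calls also rest on retests at 20 µM and on dose response follow-up; 0% = protein and probe with vehicle and 100% = probe without protein; strong numbers were not always called active; many hits fall short of the cut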
eIF4H inh retest: recorded beside eIF4H inh, whose call it bears; inhibition, %; compound at 20 µM; confirmation average;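 mean of two retest wells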
PABP polyA inh retest: recorded beside PABP polyA inh, whose call it bears; inhibition, %; compound at 20 µM; confirmation repeats;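 mean of two retest wells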
MT1-MMP act inh RFP: recorded beside MT1-MMP act inh, whose call it bears; RFP signal change, %; measured here: RFP expression control read;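 0 = vehicle wells; hits needed this value within 50% of zero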
An asterisk follows results filed as active; i = inactive; ? = inconclusive; nt = not tested or not shown; & = joins results of further samples; ! = not active in a repeat.

SMILES | Rce1 inh | UUG fidelity | PABP polyA inh | Env fusion inh | MT1-MMP act inh | MT1-MMP act inh RFP | CSC inhib | eIF4H inh | others
CCC(=O)N(Cc1cc2ccccc2[nH]c1=O)c1ccc(OC)cc1 | i | nt | -3 | -14 | 1 | 5 | nt | 7
COC(=O)c1ccccc1NC(=S)NC(=O)COc1ccc(C)cc1 | nt | -20 | nt | nt | 3 | 7 | -7 | nt
Cc1nn(CCCC(=O)Nc2ccccn2)c(C)c1[N+](=O)[O-] | i | nt | -1 | 6 | 3 | 1 | nt | 9
Cc1c(N=Nc2ccc(N(C)C)cc2)c(=O)n(-c2ccccc2)n1C | i | nt | 22 | -10 | 5 | 0 | nt | 26
C[C@@H]1CCCCO[C@H](CN(C)S(=O)(=O)c2ccc(F)cc2)[C@@H](C)CN([C@H](C)CO)C(=O)c2cc(NC(=O)Nc3ccc(C(F)(F)F)cc3)ccc2O1 | nt | -2&-7 | nt | ? | 0 | -7 | nt | nt
NC(=O)c1ccc[n+](CC(=O)c2cccc([N+](=O)[O-])c2)c1 | i | -15 | -5 | 1 | 1 | 7 | -12 | 10
COc1ccc(OCC(=O)Nc2ccncc2)cc1 | i | -20 | 6 | -11 | 0 | 2 | -9 | -4
O=C(Nc1ccc(S(=O)(=O)Nc2nccs2)cc1)c1cccc(F)c1 | i | -14 | -2 | 9 | -2 | -1 | nt | 1
C[C@@H]1CN([C@H](C)CO)C(=O)c2cc(C#CC(C)(C)O)cnc2O[C@@H]1CN(C)C(=O)C1CC1 | nt | -4&-2&0 | nt | 16 | -6 | 0 | nt | nt
COc1ccc(-c2noc(CSc3nc4sc(C)c(C)c4c(=O)n3-c3ccccc3)n2)cc1OC | i | -4 | -13 | nt | -2 | 0 | -8 | 4
COc1ccccc1NC(=O)CSc1nnc(C2CCCCC2)o1 | i | -14 | 5 | 4 | 3 | 0 | 13 | -8
CCOc1ccc(CC(=O)NCC2(N3CCCCC3)CCCCC2)cc1 | i | nt | -9 | 4 | -2 | 6 | -12 | 2
COc1cc2c(cc1OC)CN(C(=O)Cn1ccccc1=O)CC2 | i | -11 | 37 | nt | -4 | 2 | -4 | 79* | eIF4H inh retest=57*;PABP polyA inh retest=40
CC(C)C(CC(=O)NCc1ccco1)c1ccco1 (stereo unspecified) | i | -14 | 19 | -8 | -5 | -2 | -5 | 18
CN(CCOC(=O)c1ccccc1)Cc1ccccc1 | i | nt | 0 | -5 | 3 | 6 | nt | -7
Cc1nc2cc3ccccc3cc2c(=O)[nH]1 | i | -17 | 20 | nt | 5 | 1 | -8 | 2
CCN(Cc1ccccc1)c1ccc(/C=N/NC(=O)c2cccc(S(=O)(=O)N3CCOCC3)c2)cc1 | i | -19 | 10 | ? | 1 | -25 | 6 | -13
O=C(CN1C(=O)NC2(CCCC2)C1=O)Nc1cc(Cl)ccc1N1CCCC1 | i | 27 | -7 | 0 | 5 | 2 | 3 | -11
COc1ccc(C2Nc3ccccc3C(=O)N2Cc2ccco2)cc1COc1ccc(F)cc1 (stereo unspecified) | i | 1 | 4 | 27 | -13 | -14 | 24 | 10
CCOC(=O)C1CCCN(CC(O)COCc2ccc3c(c2)OCO3)C1 (stereo unspecified) | i | -3 | -14 | 3 | 10 | 7 | -8 | 2
O=C1c2ccccc2C(=O)N1CCc1c[nH]c2ccc(O)cc12 | i | -1 | 3 | -8 | 14 | -4 | 13 | -7
N#CCSc1ncnc2ccccc12 | i | nt | 6 | 34 | 3 | -19 | 4 | 0
Clc1ccc2ncc(-c3nnnn3-c3ccccc3)c(-c3ccccc3)c2c1 | i | 13 | -6 | -65 | -13 | -23 | 19 | 0
C=CCn1c(SCC(=O)N2CC(C)OC(C)C2)nnc1-c1ccncc1 (stereo unspecified) | nt | -12 | nt | -1 | -6 | 2 | nt | nt
CCOCc1nnc(NC(=O)c2ccc(NC(C)=O)cc2)s1 | i | nt | -6 | 21 | -1 | 1 | -10 | 2
SMILES | Rce1 inh | UUG fidelity | PABP polyA inh | Env fusion inh | MT1-MMP act inh | MT1-MMP act inh RFP | CSC inhib | eIF4H inh | others
C[C@H](NC(=O)C(c1ccccc1)c1ccccc1)c1ccccc1 | i | -11 | -10 | -6 | 1 | 2 | 0 | -2
COc1cccc(CSc2nnc(C(F)(F)F)n2Cc2ccc(F)cc2)c1 | i | nt | -2 | nt | 2 | -4 | -6 | -5
CC(NC(=O)c1ccc2c(c1)OCCO2)c1ccc(S(N)(=O)=O)cc1 (stereo unspecified) | i | -14 | 0 | 0 | 2 | 7 | -2 | 4
CC(C)NC(=O)Nc1ccc2c(c1)C(=O)N([C@H](C)CO)C[C@H](C)[C@@H](CN(C)Cc1ccc(C(F)(F)F)cc1)OCCCC[C@@H](C)O2 | nt | 20&4 | nt | 77*! | -2 | 2 | nt | nt
CC(C)c1ccc(NC(=O)C2Cc3c(-c4ccc(Cl)cc4)ccnc3O2)cc1 (stereo unspecified) | nt | -39 | nt | -24 | 8 | 1 | nt | nt
Cc1cccc(Cc2cnc(NC(=O)c3ccc(C)o3)s2)c1 | i | -31 | -3 | -58 | 9 | -7 | -2 | -4
CC(=O)COC(=O)c1cccc(N2C(=O)C3C4C=CC(C4)C3C2=O)c1 (stereo unspecified) | i | -11 | -11 | -3 | 2 | 1 | 2 | -7
COC(=O)c1scc(C)c1NC(=O)Cc1ccccc1 | i | -2 | -12 | -25 | 5 | -1 | 5 | -1
O=C(CCc1ccccc1)Nc1cccc(-c2nnc(-c3ccco3)o2)c1 | i | -22 | -6 | -17 | 8 | -1 | 3 | -4
COc1ccc(NC(=O)C/C(C)=N/NC(=O)c2ccccn2)c(OC)c1 | i | -28 | 4 | -6 | -3 | -5 | nt | 1
COc1ccc(-n2nc(C(=O)Nc3nc4ccc(OC)cc4s3)c3ccccc3c2=O)c(OC)c1 | i | nt | -10 | nt | nt | nt | 20 | -7
COCCn1c(C)cc(C(=O)COC(=O)CCc2ccc(S(=O)(=O)N3CCOCC3)cc2)c1C | i | 5 | -2 | 18 | 3 | 4 | -1 | 5
CC1(CCc2ccc3c(c2)OCO3)NC(=O)c2ccccc2N1 (stereo unspecified) | i | -15 | 10 | -88 | -1 | 2 | nt | 1
COc1ccc(C(=O)CCC(=O)NC2=NCCS2)cc1 | i | -14 | 1 | 10 | -3 | 7 | 15 | -2
CCCCOC(=O)N1CCOCCOCCOCCOCC1 | i | nt | -9 | 4 | -2 | 2 | -2 | -13
COc1ccc(COC[C@H](C)[C@H](O)[C@@H](C)[C@H]2OC(=O)[C@@H]2C)cc1 | i | -2 | nt | 19 | 3 | 1 | -17 | nt
COc1ccc(O)c(C2NC(CC(C)C)(C(=O)O)C3C(=O)N(Cc4ccccc4)C(=O)C23)c1 (stereo unspecified) | i | -16 | -8 | -45 | 0 | 0 | -4 | -9
CCN(CC)C(=O)c1cc2sc3ccccc3c2s1 | i | -3 | -9 | nt | 4 | -3 | nt | -6
O=C(Nc1cccc(C(F)(F)F)c1)c1cccnc1 | i | nt | -6 | nt | 0 | 1 | -2 | -9
O=C(c1ccco1)N1CCN(C(=O)c2ccc(CS(=O)c3ccc(Cl)cc3)o2)CC1 (stereo unspecified) | i | -15 | 11 | -10 | 3 | 3 | -9 | 2
O=C(Nc1ccccc1C(F)(F)F)NC1CCCCCCC1 | i | nt | 0 | nt | -10 | -6 | 1 | 1
O=C(N/N=C/c1ccc(N2CCCC2)c([N+](=O)[O-])c1)c1cccnc1 | i | nt | 23 | -2 | 4 | 2 | 19 | -2
O=C(Cn1nnc(-c2cccs2)n1)NCc1ccccc1 | i | nt | -6 | 4 | -1 | -3 | 1 | -3
CCN(CC)S(=O)(=O)c1ccc(C(=O)Nc2nnc(-c3ccco3)o2)cc1 | i | nt | -7 | -9 | 1 | 2 | 2 | 9
O=C(O)CC1(CC(=O)NCc2ccccn2)CCCCC1 | i | -26 | -1 | -10 | 0 | 8 | -12 | 0

5 entries picked at random from those above:
SMILES | Rce1 inh | UUG fidelity | PABP polyA inh | Env fusion inh | MT1-MMP act inh | MT1-MMP act inh RFP | CSC inhib | eIF4H inh | others
CC1(CCc2ccc3c(c2)OCO3)NC(=O)c2ccccc2N1 (stereo unspecified) | i | -15 | 10 | -88 | -1 | 2 | nt | 1
CC(C)c1ccc(NC(=O)C2Cc3c(-c4ccc(Cl)cc4)ccnc3O2)cc1 (stereo unspecified) | nt | -39 | nt | -24 | 8 | 1 | nt | nt
CC(NC(=O)c1ccc2c(c1)OCCO2)c1ccc(S(N)(=O)=O)cc1 (stereo unspecified) | i | -14 | 0 | 0 | 2 | 7 | -2 | 4
CC(C)NC(=O)Nc1ccc2c(c1)C(=O)N([C@H](C)CO)C[C@H](C)[C@@H](CN(C)Cc1ccc(C(F)(F)F)cc1)OCCCC[C@@H](C)O2 | nt | 20&4 | nt | 77*! | -2 | 2 | nt | nt
COc1cccc(CSc2nnc(C(F)(F)F)n2Cc2ccc(F)cc2)c1 | i | nt | -2 | nt | 2 | -4 | -6 | -5

Returning to the listing, starting 2 compounds before the break.
SMILES | Rce1 inh | UUG fidelity | PABP polyA inh | Env fusion inh | MT1-MMP act inh | MT1-MMP act inh RFP | CSC inhib | eIF4H inh | others
CCN(CC)S(=O)(=O)c1ccc(C(=O)Nc2nnc(-c3ccco3)o2)cc1 | i | nt | -7 | -9 | 1 | 2 | 2 | 9
O=C(O)CC1(CC(=O)NCc2ccccn2)CCCCC1 | i | -26 | -1 | -10 | 0 | 8 | -12 | 0
CN(C)CCNC(=O)c1onc(CSc2ccncc2)c1C(=O)NCCN(C)C | i | -18 | nt | 7 | 2 | 5 | 12 | nt
COc1ccc(NC(=O)c2cc(S(=O)(=O)N3CCOCC3)cn2C)cc1Cl | i | 0 | 1 | 11 | -4 | -3 | -1 | -7
CC1CCc2c(sc3ncnc(N4CCOCC4)c23)C1 (stereo unspecified) | i | 0 | 7 | 92* | -13 | -12 | 1 | -2
CCCNC(=O)CN(C1CCCCC1)S(C)(=O)=O | i | -10 | 13 | nt | 6 | 0 | 6 | -3
CCc1ccc(-c2nc(SCC(=O)c3c(N)n(C4CC4)c(=O)[nH]c3=O)n[nH]2)cc1 | nt | -19 | nt | -35 | 4 | -3 | -3 | nt
Cc1ccc2nc(N3CCN(C(=O)CCC(=O)O)CC3)nc(-c3ccccc3)c2c1 | i | -3 | -3 | -20 | 1 | -4 | -3 | -4
CNc1nnc(CSc2nc3ccccc3s2)s1 | i | 0 | -11 | nt | 0 | 4 | nt | -10
Cc1ccc(OCC(O)Cn2c(N)nc3c2c(=O)n(C)c(=O)n3C)cc1 (stereo unspecified) | i | nt | -4 | 9 | -2 | -4 | -4 | 11
CCCc1cc2c(cc1NC(=O)c1ccccc1Cl)OCO2 | i | -22 | 5 | nt | -4 | -1 | -9 | 0
Cc1ccc(NC(=O)C2C3C=CC4(CN(Cc5cccnc5)C(=O)C24)O3)cc1F (stereo unspecified) | i | -20 | -20 | -12 | 1 | 5 | 14 | -2
O=C(O)CCC(=O)Nc1ccc(Oc2ncnc3cc(Cl)ccc23)nc1 | i | -5 | 1 | -6 | 3 | 5 | -9 | 5
NC(=O)c1ccc(N=Nc2c(O)c3ccccc3[nH]c2=O)cc1 | i | nt | 33 | nt | nt | nt | -11 | 31

Screening data from PubChem.
